Source: PubChem BioAssay
N370S GC = N370S glucocerebrosidase modulation, Gaucher chaperone candidate | N370S GC spleen homogenate, 4MU-glucoside fluorescence | P04062 | Potency, µM (highest dose often 59.4 µM), for the others: at the top dose activity change, negative = inhibition, hits mostly inhibitors | 330,000 tested, 0.092% active;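 further: 0% = full enzyme activity and -100% = no enzyme basal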
TDP1 block = inhibitors of human tyrosyl-DNA phosphodiesterase TDP1. recombinant TDP1, AlphaScreen DNA substrate cleavage. Potency, µM (top dose mostly 130 µM), without a hit: at the highest dose activity change, negative = inhibition, most hits filed as inhibitors. 350,000 tested, 0.28% active. AID 485290; further: nearly all actives have a fitted effect of over 40% in size
Target sequence (Q9NUW8 whole entry, looked up): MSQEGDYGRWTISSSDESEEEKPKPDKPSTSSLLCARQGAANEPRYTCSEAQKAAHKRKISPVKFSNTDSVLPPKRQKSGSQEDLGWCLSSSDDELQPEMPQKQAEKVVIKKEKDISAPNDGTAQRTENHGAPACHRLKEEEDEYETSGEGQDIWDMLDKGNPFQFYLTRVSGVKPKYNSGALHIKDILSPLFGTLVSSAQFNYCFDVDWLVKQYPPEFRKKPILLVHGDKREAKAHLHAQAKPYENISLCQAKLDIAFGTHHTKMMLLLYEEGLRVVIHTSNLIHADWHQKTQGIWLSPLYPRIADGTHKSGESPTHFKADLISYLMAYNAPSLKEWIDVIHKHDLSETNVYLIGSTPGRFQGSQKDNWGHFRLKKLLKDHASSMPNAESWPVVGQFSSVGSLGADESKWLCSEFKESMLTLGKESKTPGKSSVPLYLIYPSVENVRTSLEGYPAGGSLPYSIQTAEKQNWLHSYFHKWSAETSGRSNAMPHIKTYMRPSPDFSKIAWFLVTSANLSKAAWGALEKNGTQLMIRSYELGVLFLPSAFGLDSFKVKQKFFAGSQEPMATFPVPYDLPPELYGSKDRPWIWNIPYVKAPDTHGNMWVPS
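Tdp1 1 nM final; 15 min RT w/ cpd; substrate 15 nM, 5 min; beads 10 ug/ml, 10 min; AlphaScreen read. Neg ctrl: no enzyme.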
Active calls of the source: *; ? = inconclusive; . = no result given; [ ] = another dose, or the depositor's remark. The call rests on the fitted dose curve; in most records, active means well fitted curve in the direction sought with a large enough effect; inconclusive means small, poorly fitted or top-dose-only effect, or another doubt; inactive means no such curve, though single readings can be large; an effect the other way counts as inactive or inconclusive. Unless noted, on the % scale 0 is the no-effect control and ±100 the full control effect; potency means the concentration at half of the fitted maximal effect. This is a subset, and most or all hits are left out here.

N370S GC,TDP1 block,smiles
0%,5%,O=C(NCc1ccco1)C(=O)NCC1OCCCN1S(=O)(=O)c1ccc(F)cc1 (stereo unspecified)
-6%,0%,COc1cc(NC(=O)c2cccc(C)c2)c(Cl)cc1[N+](=O)[O-]
-12%,1%,Cc1ccc(S(=O)(=O)N2CCOC2CNC(=O)C(=O)NCCCc2ccccc2)cc1 (stereo unspecified)
3%,.,O=C(NNC(=O)c1ccccc1F)c1ccc(-n2cncn2)c([N+](=O)[O-])c1
3%,.,COc1ccc(OC)c(Nc2nc3ccc(C)cc3n3cnnc23)c1
8%,0%,COc1ccc(S(=O)(=O)N2CCCOC2CNC(=O)C(=O)NCc2ccco2)cc1C (stereo unspecified)
1%,0%,COc1ccc2[nH]cc(S(=O)(=O)c3ccc(C)cc3)c2c1
2%,-12%,N/C(Cc1ccc(Cl)cc1Cl)=N\OC(=O)Cc1ccccc1
5%,-6%,O=C1CCN(S(=O)(=O)c2ccc(Cl)cc2)N1
12%,-1%,CC(=O)NC(CCS(C)(=O)=O)C(=O)Nc1cc(C)ccc1C (stereo unspecified)
9%,6%,CCCCCN(C(=O)CCC(=O)OCc1ccccc1F)c1c(N)n(CCCC)c(=O)[nH]c1=O
-5%,5%,COc1ccc(NC(=S)NCCN2CCOCC2)cc1
-4%,0%,CCc1ccc(NC(=O)C2CCN(c3ncnc4c3nc3n4CCCCC3)CC2)cc1
27%,-5%,CC(=O)Nc1ccc(OC(F)(F)Cl)cc1
-8%,-5%,CC1CC(NC(=O)CC#N)CC(C)(C)C1 (stereo unspecified)
4%,5%,CCCCCCCC(=O)N/N=C(\C)c1cccnc1
14%,3%,CCC1=NN(C(=O)Cc2ccccc2)C(O)(c2ccncc2)C1 (stereo unspecified)
.,-7%,COc1ccccc1CNC(=O)COC(=O)c1ccc(Cl)nc1
24%,-2%,Cc1cc(Cl)ccc1OCCCC(=O)NCCN1C(=O)S/C(=C\c2cccnc2)C1=O
5%,4%,CCC(C)NC(=O)CSc1ccc(NC(C)=O)cc1 (stereo unspecified)
2%,0%,Cn1c(C(=O)O)c(CC(=O)Nc2ccc(F)cc2F)c2ccccc21
1%,6%,CCOc1ccc(NC(=O)CC2C(=O)N(c3ccc(OC)cc3)C(=O)N2CCc2ccc(OC)c(OC)c2)cc1 (stereo unspecified)
-6%,11%,S=C(NCCN1CCOCC1)N1CCN(c2cccc(Cl)c2)CC1
1%,.,CCc1c(C)nc(N2CCN(c3ccc(F)cc3)CC2)[nH]c1=O
-3%,0%,CN(C)c1nc2sc3c(c2c(=O)n1C)CC(C)(C)OC3

Molecules shown so far containing a furan ring, fused or not (2):
N370S GC,TDP1 block,smiles
0%,5%,O=C(NCc1ccco1)C(=O)NCC1OCCCN1S(=O)(=O)c1ccc(F)cc1 (stereo unspecified)
8%,0%,COc1ccc(S(=O)(=O)N2CCCOC2CNC(=O)C(=O)NCc2ccco2)cc1C (stereo unspecified)

Seven compounds from above, sorted by formula weight, descending.
N370S GC,TDP1 block,smiles
1%,6%,CCOc1ccc(NC(=O)CC2C(=O)N(c3ccc(OC)cc3)C(=O)N2CCc2ccc(OC)c(OC)c2)cc1 (stereo unspecified)
-12%,1%,Cc1ccc(S(=O)(=O)N2CCOC2CNC(=O)C(=O)NCCCc2ccccc2)cc1 (stereo unspecified)
3%,.,O=C(NNC(=O)c1ccccc1F)c1ccc(-n2cncn2)c([N+](=O)[O-])c1
2%,0%,Cn1c(C(=O)O)c(CC(=O)Nc2ccc(F)cc2F)c2ccccc21
12%,-1%,CC(=O)NC(CCS(C)(=O)=O)C(=O)Nc1cc(C)ccc1C (stereo unspecified)
1%,.,CCc1c(C)nc(N2CCN(c3ccc(F)cc3)CC2)[nH]c1=O
27%,-5%,CC(=O)Nc1ccc(OC(F)(F)Cl)cc1

Back to the main list with the 3 entries that preceded the break.
N370S GC,TDP1 block,smiles
-6%,11%,S=C(NCCN1CCOCC1)N1CCN(c2cccc(Cl)c2)CC1
1%,.,CCc1c(C)nc(N2CCN(c3ccc(F)cc3)CC2)[nH]c1=O
-3%,0%,CN(C)c1nc2sc3c(c2c(=O)n1C)CC(C)(C)OC3
6%,.,O=C(NNC(=S)Nc1ccccc1)c1ccc(O)cc1
-8%,.,Cc1nc2ccc([N+](=O)[O-])cc2c(=O)n1Cc1ccc(Br)cc1
.,-2%[56.1 µM],Cn1c(SCC(=O)NC(=O)NCc2ccccc2)nnc1C(F)(F)F
-9%,2%,COc1ccccc1NC(=O)Cn1c(=O)sc2ccccc21
-2%,8%,Cc1cc(Cl)ccc1OCC(=O)Nn1c(C)ccc1C
6%,3%,CC(C)c1ccccc1N=C1SCCN1C1CCS(=O)(=O)C1 (stereo unspecified)
-4%,7%,COc1ccc(CCNC(=O)CNC(=O)c2nn(-c3ccc(OC)c(OC)c3)c(=O)c3ccccc23)cc1OC
12%,5%,NC(=O)c1nsnc1-c1ccccc1O
8%,5%,COc1ccc(C(=O)c2ccc(Br)cc2)c2ccccc12
-3%,.,CCOc1c(Cl)cc(CNCc2ccncc2)cc1OC
9%,5%,FC(F)(F)c1cnc(Nc2ccc(N3CCOCC3)cc2)c(Cl)c1
26%,8%,Cn1cccc1C(=O)OCc1cc(Cl)cc2c1OCOC2
-15%,.,COc1ccc(N(CC(=O)Nc2cc(Cl)ccc2OC)C2=NC3CS(=O)(=O)CC3S2)cc1 (stereo unspecified)
-18%,4%,Cc1ccc2nc(-c3ccc(NC(=O)C4CCCO4)cc3)[nH]c2c1 (stereo unspecified)
0%,5%,Cc1ccc(-n2c(C)cc(/C=N/NC(=O)CC3(C)OCCO3)c2C)cc1
-17%,4%,CCn1nc(CC(C)C)cc1C(=O)N1CCCC(Nc2ccc(F)cc2)C1 (stereo unspecified)
-6%,-1%,O=C(Cc1cccs1)N1CCN=C1SCc1cccc(F)c1
-5%,.,O=C(CCCl)Nc1ccc(S(=O)(=O)NCc2ccco2)cc1
-10%,3%,COc1ccccc1NC(=O)c1ccc(NC(=O)COC(=O)C(C)C)cc1
22%,7%,COc1ccccc1NC(=O)C1CCCCC1
6%,2%,CCCOc1ccc(C(=O)NCCCn2ccnc2)cc1
-17%,7%,CCOC(=O)c1cnc2nc(COc3ccccc3)[nH]n2c1=O
3%,-1%,Cc1nc(SCc2ccccc2C)n[nH]1
-8%,.,CCOC(=O)C1=C(CCc2ccccc2)NC(=O)NC1c1cccc([N+](=O)[O-])c1 (stereo unspecified)
3%,1%,CC(C)n1nnnc1SCC(=O)N1CCN(C(=O)c2ccco2)CC1

Carrying on.
N370S GC,TDP1 block,smiles
3%,4%,COC(=O)c1cn(NC(=O)c2cccc(OC)c2)c(=O)c2ccccc12
5%,.,CC(=O)Nc1cccc(NC(=O)C2C3C=CC(C3)C2C(=O)O)c1 (stereo unspecified)
.,3%,COc1ccc(-c2nc3cc(NC(=O)CSc4ccc(C)cc4)ccc3o2)cc1
3%,4%,CN(C)S(=O)(=O)c1ccc(NC(=O)COC(=O)c2n[nH]c3ccccc23)cc1
26%,5%,C/C(Cl)=C/CSc1nn2c(=O)c3ccccc3nc2s1
-14%,4%,Cn1c(CO)cnc1SCC(=O)c1ccc(Br)cc1
.,-6%,COc1ccc(OC)c(NC(=O)N2CCC(N3CCN(Cc4ccc(F)cc4)C(=O)C3=O)CC2)c1
-1%,.,CSc1ncccc1C(=O)NC1CCCCCCC1
-3%,5%,Cc1ccc(NC2=C(N3CCOCC3)C(=O)c3ccccc3C2=O)cc1
11%,1%,COc1cc(/C=C/c2sc3ccccc3[n+]2CCCS(=O)(=O)[O-])ccc1O
2%,6%,CCN(CC)S(=O)(=O)c1cccc(NC(=O)c2cc(-c3cccs3)nn2-c2ccccc2)c1
5%,7%,COc1ccccc1C(=O)n1nc(-c2ccc(Cl)cc2)nc1N
3%,.,CCC(=O)N1CCc2cc(S(=O)(=O)N(C)c3ccc(Br)cc3)ccc21
.,1%,COc1ccc(C(=O)NC2CCC(O)CC2)cc1S(=O)(=O)NCc1ccc(Cl)cc1 (stereo unspecified)
-10%,.,CCOc1cc(CN2CCCC(CO)(Cc3ccc(F)cc3F)C2)ccc1OC (stereo unspecified)
-9%,1%,O=C1NCCN/C1=C\C(=O)c1ccc(F)cc1
-5%,5%,NC(=O)N/N=C/c1ccc(-c2cccc(C(F)(F)F)c2)o1
15%,.,CC(=O)Nc1cccc(NC(=O)Nc2cccc(F)c2)c1
2%,4%,OC1(c2ccccc2F)CCN(Cc2nnnn2Cc2ccc(F)cc2)CC1
8%,5%,CC(C)(C)n1nnnc1C(c1cccnc1)N(Cc1ccccc1)Cc1ccco1 (stereo unspecified)
5%,0%,O=C1CC(c2ccccc2)n2nc(NC(=O)C3CCCO3)nc2N1 (stereo unspecified)
-15%,.,COC(=O)COc1ccc(S(=O)(=O)Nc2ccc3c(c2)OCCO3)cc1C
-13%,-17%,COc1ccc2c(c1)c1nc3n(c(=O)c1n2CC(=O)Nc1ccccc1)CCS3
0%,-1%,O=C(CCCOc1ccc(Cl)cc1Cl)NNC(=O)C1CCC1
.,0%,Cc1ccc(C(=O)O)cc1NC(=O)C1CCN(S(=O)(=O)c2ccc3c(c2)OCCO3)CC1

(further entries)
N370S GC,TDP1 block,smiles
-6%,1%,CCOCCc1c(O)nc(SCC)[nH]c1=O
-2%,8%,Cc1cc(C(=O)Nc2ncc(C)s2)c2ccccc2n1
5%,.,CCN(CC)CCNC(=O)CCN1N=C(c2ccccc2)CCC1=O
-1%,.,O=C(NCc1ccccc1)c1ccc(N2CCC3(CC2)CC(c2ccccc2)=NO3)c([N+](=O)[O-])c1
5%,-3%,O=C(Cn1ncc2c(=O)oc3ccccc3c21)NCCc1ccsc1
?,4%,Cc1ccc(C(=O)N/N=C\c2ccc[nH]2)cn1
-14%,0%,Cc1ccc(-c2nc(CS(=O)(=O)CC(=O)NCCN3CCOCC3)c(C)o2)cc1
-15%,.,CC(C)(C)OC(=O)[C@H](CCCCN)NC(=O)c1nc[nH]c1C(=O)NCCCCCN
-2%,-5%,Cc1cc(N)n(Cc2ccc(Cl)cc2)n1
1%,.,CN1CCc2c(sc(NC(=O)Cc3ccccc3)c2C#N)C1
-4%,-6%,CN1c2ccccc2C(O)=C(C(=S)Nc2ccccc2)S1(=O)=O
4%,2%,Cc1cc(C)c2nc(-c3ccccn3)cc(C(=O)Nc3cc(C)on3)c2c1
-9%,2%,Cn1c(Nc2ccc(F)cc2)nc2ccccc21
4%,6%,COCCCn1c(C(=O)NCCN2CCOCC2)cc2c(=O)n3ccccc3nc21
3%,8%,CCCCCCn1c(N2CCCC2)nc2c1c(=O)n(C)c(=O)n2C
1%,0%,O=C(NCc1ccc(F)cc1)C(=O)NCC(c1ccco1)N1CCOCC1 (stereo unspecified)
4%,5%,CC(C)C(=O)Nc1ccc(C(=O)NCc2cccnc2)cc1
-7%,12%,CC1CCN(CC(=O)Nc2ccc(N3CCCCCC3)cc2)CC1
-9%,-10%,CC(OC(=O)c1nc(Cl)ccc1Cl)C(=O)Nc1ccc2c(c1)OCCO2 (stereo unspecified)
-28%,7%,Cn1c(NCC(O)CO)nc2c1c(=O)n(Cc1ccc(Cl)c(Cl)c1)c(=O)n2C (stereo unspecified)
-2%,.,NC(=O)c1ccccc1NCC(=O)c1ccc(Cl)cc1
4%,4%,COc1cc(/C=C2/C(=O)N(c3ccc([N+](=O)[O-])cc3)N=C2N2CCOCC2)ccc1O
-4%,3%,Cc1nc2sc(C(=O)Nc3ccccc3)c(N)c2c(C)c1[N+](=O)[O-]
-12%,6%,Cc1ccc(C(=O)Nc2cc(-c3ccn[nH]3)c(C)n(N)c2=O)cc1
9%,3%,CCOC(=O)c1cc(-c2ccco2)nc2c1c(C)nn2CCC#N

Further results follow.
N370S GC,TDP1 block,smiles
-3%,3%,CC(=O)NCCC(=O)Nc1nc(C)c(Cc2ccc3c(c2)OCO3)s1
-2%,7%,CC(=O)Nc1ccc(S(=O)(=O)Nc2ccc(N3CCOCC3)cc2)cc1
1%,2%[56.1 µM],CCOC(=O)CCCNC(=O)COC(=O)c1cc(C)cc(C)c1
-1%,1%,OCCC1CN(C2CCC2)CCN1Cc1ccc(F)c(F)c1 (stereo unspecified)
-12%,6%,COc1ccc(C(=O)/C=C2/c3ccccc3CC(C)(C)N2C)cc1
1%,-4%,Cc1cc(C(=O)O/N=C(\N)c2ccncc2)ccc1[N+](=O)[O-]
1%,5%,CC1CCN(c2ccc(/C=C(\C#N)c3nn(-c4ccccc4)c(N)c3C#N)cc2[N+](=O)[O-])CC1
-5%,3%,NNC(=O)c1cc(C23CC4CC(CC(C4)C2)C3)[nH]n1
8%,.,O=C(O)c1cccc([N+](=O)[O-])c1C(=O)Nc1cccc2ccccc12
-10%,1%,c1cnc2c(C3NCCc4c3[nH]c3ccccc43)cccc2c1 (stereo unspecified)
29%,10%,C[C@H](NC(=O)c1nc[nH]c1C(=O)NCc1ccc(CNC(=O)OC(C)(C)C)cc1)C(=O)OC(C)(C)C
5%,5%,O=C1Cn2c(nc3ccccc32)N1c1ccccc1F
8%,.,Nn1c(Cc2ccccc2)nc2cc(Cl)ccc2c1=O
-5%,2%,CC(NC(=O)c1ccco1)C(=O)OCc1cccc(Cl)c1 (stereo unspecified)

Record cards, from the list above. Screens in order: N370S GC, TDP1 block
O=C(O)c1cccc([N+](=O)[O-])c1C(=O)Nc1cccc2ccccc12 is listed with 8%, .
CCCCCN(C(=O)CCC(=O)OCc1ccccc1F)c1c(N)n(CCCC)c(=O)[nH]c1=O is listed with 9%, 6%
